Yeast UUG start – modulators of start codon recognition fidelity in yeast; S. cerevisiae UUG-firefly luciferase reporter, luminescence/redox ratio; AID 602363; activity score, % at 18.7 µM; 0.13% of 350,000 active;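 active = replicate mean at a twofold rise or more, about +100% in these data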;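 also: firefly luciferase made from a UUG start codon reports start codon fidelity; reporter light over untreated wells divided by growth signal over untreated wells; some hits fall short of that in this replicate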
eIF4H inh – inhibitors of RNA binding by human eIF4H; eIF4H fluorescence polarization binding assay; Q15056; 0.94% of 290,000 active; AID 2012; inhibition, % at 35 µM;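 active = 50% or more with normal probe brightness, or confirmed in later tests; inconclusive = above 50% with abnormal brightness, or retests that disagree; inactive = below 50% or failed in later tests; about a fifth of its hits are not listed in these tables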;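 also: calls also rest on retests at 20 µM and on dose response follow-up; 0% = protein and probe with vehicle and 100% = probe without protein; strong numbers were not always called active; many hits fall short of the cut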
Rce1 inhib – yeast Ras-converting enzyme inhibition | calls only | Q03530 | AID 2563 | yeast membranes, quenched prenylated peptide cleavage fluorescence | 0.27% of 290,000 active;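 active = fall in fluorescence gain of 50% or more versus controls, with final raw signal at or below 3038400; inconclusive = same 50% fall but final raw signal above 3038400; inactive = fall in fluorescence gain under 50%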;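 also: plate controls were neutral control wells for no effect and wells lacking membranes for full effect; tested at 10 µM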
CSC inhib – cancer stem cell inhibition; cancer stem cell-like cells viability, luminescence; inhibition, % at 7.5 µM; 1.1% of 300,000 active; AID 2717;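 active = mean at 75% or more and at least half the replicates too; inconclusive = mean and replicates disagree; tested in HMLE shEcad cells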;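 also: 0% = median of negative and 100% = median of positive control wells; the first replicate is given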
MT1-MMP act inh – inhibitors of human MT1-MMP activation | 0.061% of 360,000 active | HT1080 RFP-PRO-GFP cells, GFP/RFP ratio fluorescence, overnight; percent of plate control window, DMSO zero | GFP/RFP ratio change, % at 20 µM | P50281 | AID 651647;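 active = GFP/RFP ratio change of at least 30% with cell ATP level not reduced by more than half and red fluorescence within 50% of control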; also: strong numbers were not always called active
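Assay system: HT1080 RFP-PRO-GFP cells. Benchmarks: DMSO vehicle wells and RFP-L50D-GFP reporter cell wells. Times: overnight cell settling, then overnight compound exposure, 37 °C, 5% CO2. Compound: 20 µM single dose, 1% DMSO. Read-out basis: GFP/RFP fluorescence ratio.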
PABP polyA inh – blocks human PABP binding to poly(A) RNA. P11940. fluorescence polarization. inhibition, % at 35 µM. 1% of 290,000 active. AID 2014;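 active = 50% or more with normal probe brightness, or confirmed in later tests; inconclusive = above 50% with abnormal brightness, or retests that disagree; inactive = below 50% or failed in later tests; about a fifth of its hits are not listed in these tables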;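 also: calls also rest on retests at 20 µM and on dose response follow-up; controls were probe without protein and protein plus probe with vehicle; some compounds called inactive have numbers as strong as hits; many hits fall short of the cut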
Target sequence (P11940 whole entry, looked up): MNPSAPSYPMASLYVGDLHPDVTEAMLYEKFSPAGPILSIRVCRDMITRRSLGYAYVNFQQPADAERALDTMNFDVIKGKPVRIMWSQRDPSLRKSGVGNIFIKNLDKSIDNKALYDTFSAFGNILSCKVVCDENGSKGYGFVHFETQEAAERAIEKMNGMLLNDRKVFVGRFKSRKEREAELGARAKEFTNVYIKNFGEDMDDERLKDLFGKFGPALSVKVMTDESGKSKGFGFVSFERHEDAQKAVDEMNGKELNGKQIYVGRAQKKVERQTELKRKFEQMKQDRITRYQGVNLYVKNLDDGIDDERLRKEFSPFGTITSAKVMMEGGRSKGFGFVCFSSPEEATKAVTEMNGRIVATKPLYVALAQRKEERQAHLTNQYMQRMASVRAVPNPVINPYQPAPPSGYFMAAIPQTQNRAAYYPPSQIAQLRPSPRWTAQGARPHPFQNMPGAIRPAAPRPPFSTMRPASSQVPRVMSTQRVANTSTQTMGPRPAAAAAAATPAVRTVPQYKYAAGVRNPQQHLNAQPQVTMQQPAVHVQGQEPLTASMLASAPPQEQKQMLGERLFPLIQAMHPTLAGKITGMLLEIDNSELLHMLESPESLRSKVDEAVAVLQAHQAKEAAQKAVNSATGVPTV
Env fusion inh – HIV envelope-mediated fusion inhibition; inhibition, % at 12.3 µM; 1.1% of 360,000 active; HeLa-JRFL Env/CEM21 cell fusion, luciferase;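 active = mean replicate inhibition score of at least 50 and every replicate individually at or above 50; inconclusive = only one of the two criteria met; inactive = mean below 50 and not all replicates reaching 50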;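 also: 0% = plate neutral controls and 100% = maraviroc near 300 nM; one replicate is shown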
MT1-MMP act inh RFP – further read-out of MT1-MMP act inh, marked with its call; RFP signal change, %; measured here: RFP expression control read;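 0 = vehicle wells; hits needed this value within 50% of zero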
* hit, by the source's call; i = inactive; u = inconclusive; x = no result given.

1) COc1ccc(OC)c(S(=O)(=O)Nc2ccc3oc4c(c3c2)C(=O)CCC4)c1
2) CCOc1ccc(C(C#N)N2CCOCC2)cc1OC (stereo not given)
3) Cc1nn(-c2ccccc2)c(C)c1NC(=O)COC(=O)/C=C/c1ccccc1
4) S=c1[nH]nc(C2CCCCC2)n1/N=C/c1ccccc1
5) O=C1c2ccc([N+](=O)[O-])cc2C(=O)N1c1c[nH]c(=O)[nH]c1=O
6) CCN1CCN(C(=O)c2nn(C)c3c2CS(=O)(=O)c2ccccc2-3)CC1
7) CC1Cc2ccccc2N1S(=O)(=O)c1cccc(C(=O)NCc2ccccn2)c1 (stereo not given)
8) CC(C)CNC(=O)C1(C)CCCN1C(=O)c1ccncc1 (stereo not given)
screen / no.	1	2	3	4	5	6	7	8
Yeast UUG start	-12	-28	-13	-13	-4	-20	-17	-10
eIF4H inh	-4	-4	x	-7	7	3	x	x
Rce1 inhib	x	i	i	i	i	i	x	x
CSC inhib	4	-10	-19	-13	2	-16	-8	x
MT1-MMP act inh	9	7	x	-4	0	-1	-2	0
MT1-MMP act inh RFP	0	-2	x	-6	0	3	-5	3
PABP polyA inh	-1	-3	x	-1	-9	8	x	x
Env fusion inh	-28	-196	4	-6	-7	1	x	3

9) CC(C(=O)Nc1sccc1C(N)=O)N1C(=O)C2CC=CCC2C1=O (stereo not given)
10) O=C(NCc1ccco1)c1ccc2sc([C@H]3C[C@H](O)[C@@H](CO)O3)nc2c1
11) C/C(=N\NC(=O)C1CC1)c1ccc2c(c1)OCCO2
12) O=[N+]([O-])c1ccc(N/N=C/c2ccc[nH]2)cc1
13) CC(=O)c1ccc(N2C(=O)NC3(CCCCC3)C2=O)cc1
14) Cc1ccc(S(=O)(=O)N(CC(=O)NCC2CCCO2)C2CCCCC2)cc1 (stereo not given)
15) Cc1nc(-c2ccccc2)sc1C(=O)/C=C/N(C)C
16) Cc1nc(OCc2ccccc2)c2ccccc2n1
screen / no.	9	10	11	12	13	14	15	16
Yeast UUG start	-6	-19	x	-25	-7	-4	x	-8
eIF4H inh	-2	x	-3	15	-2	-6	-1	-6
Rce1 inhib	i	x	i	x	i	i	i	i
CSC inhib	-6	x	0	88*	-13	-7	-3	6
MT1-MMP act inh	3	-5	2	-4	3	-4	-6	x
MT1-MMP act inh RFP	1	-1	5	-12	2	0	1	x
PABP polyA inh	-3	x	-5	0	-2	5	-2	3
Env fusion inh	x	-32	-20	-24	x	-3	-25	x

17) Nc1nnc(COc2cccc(C(F)(F)F)c2)s1
18) Nc1ccc2c(c1)N=[N+]([O-])c1cc(N)ccc1C2
19) O=C1N(CCCN2C(=O)C3(OCCO3)c3ccccc32)c2ccccc2C12OCCO2
20) Cc1cc2nc(CCN(C(=S)NCC3CCCO3)C3CCCC3)[nH]c2cc1C (stereo not given)
21) Cc1cc(C(=O)NNC(=S)Nc2ccccc2C)cs1
22) COc1ccc(N(CC(=O)NC2CCCCC2)C(=O)CNC(=O)c2ccco2)cc1OC
23) OCCCn1c(CCCNc2nc(-c3cccc(Br)c3)cs2)nc2cc(Cl)c(N3CCCCC3)cc21
24) COc1ccc(C(c2nnnn2C(C)(C)C)N2CCN(c3nc4ccccc4s3)CC2)cc1OC (stereo not given)
screen / no.	17	18	19	20	21	22	23	24
Yeast UUG start	-10	-16	6	x	-32	x	-25	0
eIF4H inh	-5	-1	-9	-6	-5	5	-14	-15
Rce1 inhib	i	i	i	i	i	i	i	i
CSC inhib	-3	-7	0	-3	-13	-12	62	x
MT1-MMP act inh	-3	3	6	3	-10	4	10	2
MT1-MMP act inh RFP	1	2	0	-3	-5	5	-5	4
PABP polyA inh	-3	-4	-3	-2	7	-3	-12	0
Env fusion inh	x	-3	-34	14	-42	-5	x	x

Three entries out of the list, arranged by molar mass, falling:
14) Cc1ccc(S(=O)(=O)N(CC(=O)NCC2CCCO2)C2CCCCC2)cc1 (stereo not given)
5) O=C1c2ccc([N+](=O)[O-])cc2C(=O)N1c1c[nH]c(=O)[nH]c1=O
18) Nc1ccc2c(c1)N=[N+]([O-])c1cc(N)ccc1C2
screen / no.	14	5	18
Yeast UUG start	-4	-4	-16
eIF4H inh	-6	7	-1
Rce1 inhib	i	i	i
CSC inhib	-7	2	-7
MT1-MMP act inh	-4	0	3
MT1-MMP act inh RFP	0	0	2
PABP polyA inh	5	-9	-4
Env fusion inh	-3	-7	-3

Following part:
25) COc1ccc(S(=O)(=O)N(C)C[C@H]2Oc3c(NC(=O)Cc4ccccc4)cccc3C(=O)N([C@H](C)CO)C[C@@H]2C)cc1
26) Cc1cccc(-n2c(C)cc(C=C(C#N)C#N)c2C)c1
27) CCC(=O)/C=C1\Sc2ccc(OC)cc2N1CC
28) COc1ccc(NC(=O)CN2CCC(NC(=O)c3ccc(OC)cc3)CC2)cc1
29) COc1ccc(Oc2cccc(Cl)c2CNC(=O)CC(C)(C)CC(=O)O)cc1
30) O=C(CNCC1CCCCC1)Nc1cccc(S(=O)(=O)N2CCOCC2)c1
31) Cc1ccc(C(=O)CSc2nnc3c4ccccc4nc(C(C)(C)C)n23)cc1
32) COC(=O)C(C)N(c1ccc(C)cc1)S(=O)(=O)c1c(C)[nH]c(=O)[nH]c1=O (stereo not given)
screen / no.	25	26	27	28	29	30	31	32
Yeast UUG start	-23	-4	-13	-11	x	x	x	-9
eIF4H inh	x	-4	-9	-6	-12	-8	-4	1
Rce1 inhib	x	i	i	i	x	i	i	i
CSC inhib	-18	-1	8	-5	-7	-4	51	1
MT1-MMP act inh	-4	-8	-3	2	0	2	-3	-1
MT1-MMP act inh RFP	0	-3	-3	2	-1	-2	-5	-1
PABP polyA inh	x	u	1	-6	-7	-8	9	6
Env fusion inh	5	36	-275	6	4	13	-13	x

33) CC(=O)C1=C(C)N(Cc2ccccc2)C(=O)N[C@H]1c1ccco1
34) Cc1ccccc1NC(=S)N(C)Cc1cn(C)c2ccccc12
35) Cn1cc(-c2ccc(Cl)cc2)cc(C#N)c1=O
36) CCOc1ccc(Cl)cc1CNCCCSc1nc(C)cc(C)n1
37) COc1ccc(-n2c(=O)c3c4c(sc3n(CC(N)=O)c2=O)CCCCC4)cc1
38) O=S(=O)(Nc1ccc(O)c2ccccc12)c1cccs1
39) Cc1ccc(CNC(=O)c2cc3c(=O)n4ccccc4nc3n(CC3CCCO3)c2=N)cc1 (stereo not given)
40) CCSc1nnc(NC(=O)C2C3CCC(C3)C2C(=O)O)s1 (stereo not given)
screen / no.	33	34	35	36	37	38	39	40
Yeast UUG start	-9	-6	x	-11	x	-23	x	x
eIF4H inh	19	5	-8	12	-1	0	4	11
Rce1 inhib	i	i	i	i	i	i	u	i
CSC inhib	2	-14	-13	-5	-13	x	-3	-1
MT1-MMP act inh	-5	-2	9	-2	1	-3	-1	-152
MT1-MMP act inh RFP	4	3	-2	-2	-2	1	0	-74
PABP polyA inh	8	20	-4	21	-1	24	-2	9
Env fusion inh	-4	x	-28	u	15	9	x	13

41) COc1ccc(Nc2ncnc3ccc(Br)cc23)cc1OC
42) O=C(N/N=C/c1cc(Br)cs1)C(O)c1ccccc1 (stereo not given)
43) C/C=C/c1ccc(OCC(=O)Nc2cc(S(=O)(=O)N3CCOCC3)ccc2N2CCCC2)c(OC)c1
44) O=[N+]([O-])c1ccc(/C=N/Nc2ncc(-c3ccccc3)cn2)cc1
45) Cc1cccc(N2CCN(C(=O)c3cccc(NC4=NC5CS(=O)(=O)CC5S4)c3)CC2)c1C (stereo not given)
46) C=CCn1c(COc2ccccc2F)nnc1SCC(=O)Nc1cc(C)on1
47) Cc1ccccc1NC(=O)Cc1nc(COC(=O)c2ccccn2)cs1
48) COc1ccccc1NC(=O)C1=C(C)Nc2nnnn2C1c1ccncc1 (stereo not given)
screen / no.	41	42	43	44	45	46	47	48
Yeast UUG start	x	14	-9	x	-7	x	-5	-17
eIF4H inh	4	-5	x	18	-1	-2	x	-8
Rce1 inhib	i	i	i	i	i	i	i	i
CSC inhib	3	-9	11	x	x	x	-6	-1
MT1-MMP act inh	-8	2	0	-2	-3	0	-2	-3
MT1-MMP act inh RFP	-13	3	-7	2	-1	4	2	1
PABP polyA inh	-12	-10	x	-8	-2	-1	x	1
Env fusion inh	x	-68	-136	-5	10	29	-3	-7

49) CCCOc1ccc(Cc2c(O)nc(SC)[nH]c2=O)cc1
50) CN(Cc1ccccc1)C(=O)CCS(=O)(=O)c1ccc2c(c1)oc(=O)n2C
51) Cc1coc2cc3oc(=O)c(CCC(=O)NCC(=O)O)c(C)c3cc12
52) Nc1nc(Nc2cccc(F)c2)nc(NCCO)c1[N+](=O)[O-]
53) CC(=NC(C)C)C1=C(O)C(C)OC1=O (stereo not given)
54) COc1ccc(N(C)S(=O)(=O)c2ccc3c(c2)CC(C)N3C(=O)C2CC2)c(OC)c1 (stereo not given)
55) COc1cc(-n2c(N)c(C(=O)NCc3ccco3)c3nc4ccccc4nc32)cc(OC)c1OC
56) COc1ccc2[nH]c3c(c2c1)CCN1C(=O)C(CC(=O)NCCCN(C)C)C[C@H](C(=O)N2CCCCC2)[C@@]31C (stereo not given in full)
screen / no.	49	50	51	52	53	54	55	56
Yeast UUG start	-2	-15	0	2	x	-10	x	-2
eIF4H inh	-5	-2	-7	-5	-8	x	1	x
Rce1 inhib	i	i	i	x	i	i	x	x
CSC inhib	-8	-3	1	-9	-2	7	-5	x
MT1-MMP act inh	-5	-5	3	-1	0	4	-6	5
MT1-MMP act inh RFP	1	1	-1	-5	4	-6	-1	8
PABP polyA inh	-8	11	12	-4	-6	x	3	x
Env fusion inh	2	3	-5	-55	8	7	13	-2

57) Cc1cccn2c(=O)c3cc(C(=O)NC4CCCC4)c(=N)n(CCc4ccccc4)c3nc12
58) CCN(CCCNS(=O)(=O)c1ccc2c(c1)CCN2C(C)=O)c1cccc(C)c1
59) CCCC(=O)n1nc(-c2ccc(Cl)cc2)nc1SC
60) Oc1ccccc1CN1CCCC(N2CCc3ccccc3C2)C1 (stereo not given)
61) CN(Cc1c(F)cccc1Cl)C(=O)c1ccc(NC(=O)CC2SC(N3CCCCC3)=NC2=O)cc1 (stereo not given)
screen / no.	57	58	59	60	61
Yeast UUG start	-7	-3	-17	3	-17
eIF4H inh	1	3	3	-8	x
Rce1 inhib	i	i	i	i	x
CSC inhib	21	-5	-6	-7	5
MT1-MMP act inh	4	1	0	0	3
MT1-MMP act inh RFP	-1	-6	-2	-1	-3
PABP polyA inh	-4	-5	-16	1	x
Env fusion inh	-12	-4	x	5	x

Bioassay records: PubChem BioAssay, several laboratories
